Screening results: PubChem, several laboratories
Insulin prom inh: TRM-6 insulin promoter activity inhibition; 0.9% of 130,000 active; AID 1273; inhibition, % at 2 µM; TRM-6 cells (human fetal islet line), insulin promoter-eGFP reporter, imaging; reporter expression induced with tamoxifen;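 active = inhibition above the mean plus 3 SD, with well images judged a real hit on visual review, cut at about 60% in these data, passing the limit was not always enough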
RGS16-Gao: modulates binding between human RGS16 and Galphao. bead-based flow cytometry RGS16-Galphao binding, fluorescence; actives lie on both sides. AID 1441. O15492+P09471. binding response (% of control), % at 10 µM. 0.38% of 220,000 active;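 active = below 25% or above 175%, edge rows of some plates excepted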;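 also: Galphao activated by GDP with aluminum fluoride before binding; 100% = wells without compound and 0% = beads without RGS; some results beyond the cut were filed as inactive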
Target sequence (O15492 whole entry, looked up): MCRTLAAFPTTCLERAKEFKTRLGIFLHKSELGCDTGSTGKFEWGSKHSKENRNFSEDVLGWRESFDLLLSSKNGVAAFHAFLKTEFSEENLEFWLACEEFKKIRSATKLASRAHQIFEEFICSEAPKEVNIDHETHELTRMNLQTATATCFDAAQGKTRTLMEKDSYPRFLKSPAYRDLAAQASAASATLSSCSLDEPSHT
Target sequence (P09471 whole entry, looked up): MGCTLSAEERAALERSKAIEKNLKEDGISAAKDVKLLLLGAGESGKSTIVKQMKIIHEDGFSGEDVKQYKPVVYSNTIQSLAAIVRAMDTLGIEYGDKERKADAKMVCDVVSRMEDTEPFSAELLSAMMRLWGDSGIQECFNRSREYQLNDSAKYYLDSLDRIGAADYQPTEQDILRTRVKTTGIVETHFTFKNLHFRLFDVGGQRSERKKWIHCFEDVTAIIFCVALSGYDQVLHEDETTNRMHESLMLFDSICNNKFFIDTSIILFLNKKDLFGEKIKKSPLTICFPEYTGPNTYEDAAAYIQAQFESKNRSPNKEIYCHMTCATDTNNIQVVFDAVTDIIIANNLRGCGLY
GALR2 agonist: agonists of human galanin receptor 2 (GALR2); GALR2-expressing cells, agonist activation read-out; activation, %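 (tested at 5 µM)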; 0.48% of 140,000 active; AID 803;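 active = above mean plus 3 SD of all compounds, about 5% in these data, not always enough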;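 also: 0% = vehicle buffer wells and 100% = reference agonist at full effect; tested in CHO reporter cells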
Target sequence (O43603 whole entry, looked up): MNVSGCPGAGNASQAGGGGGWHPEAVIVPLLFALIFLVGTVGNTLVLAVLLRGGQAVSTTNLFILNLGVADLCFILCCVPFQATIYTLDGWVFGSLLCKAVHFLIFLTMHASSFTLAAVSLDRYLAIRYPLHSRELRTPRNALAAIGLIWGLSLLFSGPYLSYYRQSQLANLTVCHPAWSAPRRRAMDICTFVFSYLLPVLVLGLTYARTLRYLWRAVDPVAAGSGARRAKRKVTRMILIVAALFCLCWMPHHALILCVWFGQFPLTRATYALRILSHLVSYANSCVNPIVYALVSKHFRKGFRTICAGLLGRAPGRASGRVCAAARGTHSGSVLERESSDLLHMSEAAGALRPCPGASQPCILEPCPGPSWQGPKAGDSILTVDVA
PKD1 kinase inh: inhibitors of human PKD1 kinase. Q15139. PKD1 kinase fluorescence polarization assay. inhibition, %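 (about 10 µM by stock and volumes)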. 0.056% of 200,000 active. AID 797;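 active = inhibition of 50% or more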;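 also: controls were vehicle for no effect and a reference inhibitor for full effect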
HSV augment: HSV replication enhancement | HSV replication augmentation in cells, fold increase | maximum fold increase | 0.005% of 220,000 active | AID 1956;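 active = peak rise of 1.5-fold or more in the series; tested in PC3 cells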;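 also: first round at 10 µM; read as green reporter fluorescence; hits show the peak of a series up to 25 µM; 1 = signal of infected wells without compound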
Insulin prom inh cell count: second read-out of Insulin prom inh, no call of its own (marks repeat the call); normalized cell count, %; measured here: cell count, toxicity; reference of the scale not given here;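 cells exposed to compound for 48 h; stained nuclei by imaging scaled within each plate; lower means fewer cells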
HSV augment primary fold: recorded beside HSV augment, whose call it bears; fold increase; compound at 10 µM; measured here: primary screen fold increase 10 uM; tested in PC3 cells;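 GFP signal in the first replicate; 1 = infected wells without compound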
* = called active by the depositor; i = inactive; . = no result given; & = joins results of further samples. Outcome played no part in choosing rows. Share with any hit: about 1.3%.

SMILES	Insulin prom inh	Insulin prom inh cell count	RGS16-Gao	GALR2 agonist	PKD1 kinase inh	HSV augment	HSV augment primary fold
O=c1cc(CO)oc(C(Nc2ccccn2)c2ccccc2F)c1O (centres undefined)	.	.	.	-1.8	-7	i	0.85
CNc1ccc(/C=C/C(=O)c2ccc3c(c2)OCCO3)cc1[N+](=O)[O-]	-29	89	111	-1.0	2	i	0.9
CCOCCOC(=O)C(C)Oc1ccc(Oc2ncc(Cl)cc2Cl)cc1 (centres undefined)	.	.	106	-0.3	-5	i	0.95
Fc1ccc(CNC(=S)Nc2ccc(OC(F)F)cc2)cc1	15	137	106	-0.7	-5	i	0.98
CC(=O)Nc1ccc(NC(=S)NC(=O)c2oc3ccccc3c2C)cc1	12	119	101	-1.9	-8	i	0.92
CCCC(=O)Nc1sc2c(c1C#N)CCCCC2	35	123	91	-0.7	1	i	0.89
O=C(CSc1nnc(-c2ccc3c(c2)OCCO3)o1)N1CCCC1	-50	128	95	-1.9	3	i	0.96
COC(=O)N/N=C/c1cc(Cl)cc(Cl)c1OCc1ccc(F)cc1	-26	36	104	-1.0	5	i	0.95
COc1ccc(C(=O)NCCc2nc3cc([N+](=O)[O-])ccc3n2C)cc1	.	.	90	.	.	i	0.83
COc1ccc(OC)c(NC(=O)C2C3CCC(C3=C(C)C)C2C(=O)O)c1 (centres undefined)	.	.	39	-3.0	-12	i	0.98
Cc1cccc(NC(=O)CSc2nncn2-c2ccccn2)c1	-4	109	102	.	6	i	1
CC(=O)/C(=C\Nc1ccc(OCc2ccccc2)cc1)c1ccccc1	40	77	104	-1.3	-6	i	1.1
O=C(CN1C(=O)c2cccc3cccc(c23)C1=O)N1CCCCCC1	-2	50	109	-1.3	-4	i	1
CC(C)Oc1ccc2c3c(c(=O)oc2c1)CCC3	31	105	99	-2.5	-8	i	0.75
CCOc1ncccc1C(=O)OCC(=O)c1cc(OC)c(OC)c(OC)c1	.	.	87	.	.	i	1
COc1ccc(NC2=CC(=O)CC(c3ccccc3)C2)cc1 (centres undefined)	.	.	77	.	1	i	1
CCC(=O)OCCCCCCOc1ccc(C(=O)O)cc1	.	.	94	-0.5	6	i	0.82
COc1ccc(-c2cc(C(F)(F)F)n3nc(C(=O)N4CCCCC4)cc3n2)cc1	-21	54	104	2.2	-9	i	0.9
[O-][N+]1=c2ccc(Nc3ccccc3)cc2=NC12CCCCC2	.	.	95	-2.8	-1	i	0.6
Cc1cc(/C=N/n2cnnc2)c(C)n1-c1ccc(OCc2ccc(Cl)cc2)cc1	-25	147	104	0.7	-2	i	0.78
CCOC(=O)N1CCN(C(=O)C(C)N(c2ccc(Oc3ccccc3)cc2)S(C)(=O)=O)CC1 (centres undefined)	.	.	109	-1.6	-6	i	1
CCc1cc2c(=O)[nH]c(Cc3ccccc3)nc2s1	-93	123	97	-3.4	6	i	1
COc1nc(OC)nc(N2CCC(NC(=O)C(Cc3ccc(C(C)C)cc3)NC(C)=O)CC2)n1 (centres undefined)	-1	210	100	-0.2	-4	i	0.96
O=C(NCc1ccco1)c1nn2c(C(F)(F)F)cc(-c3cccs3)nc2c1Br	-79	84	93	-1.9	-13	i	0.89
O=C(c1cccc(S(=O)(=O)Nc2cccc(C(F)(F)F)c2)c1)N1CCCCC1	.	.	101	-0.8	8	i	1.1
Cc1ccc(NC(=O)/C(=C\c2cccs2)NC(=O)c2ccccc2)cc1	-11	66	121	-1.5	-3	i	1
Clc1ccc2[nH]cc(-c3nnnn3-c3ccc4ccccc4c3)c2c1	-16	61	-160	-1.9	6	i	0.93
CC(C)n1c(N2CCN(CC(=O)Nc3ccc4c(c3)OCCO4)CC2)nc2ccccc21	.	.	92	-0.9	-9	i	0.98
CC(=O)c1c(C)[nH]c(-c2ccccc2)nc1=S	.	.	95	.	.	i	1.1
O=C1/C(=C/c2cccc(F)c2)CSc2sccc21	10	118	99	-0.7	4	i	0.97

Next section, overlapping the part above by 2 compounds.
SMILES	Insulin prom inh	Insulin prom inh cell count	RGS16-Gao	GALR2 agonist	PKD1 kinase inh	HSV augment	HSV augment primary fold
CC(=O)c1c(C)[nH]c(-c2ccccc2)nc1=S	.	.	95	.	.	i	1.1
O=C1/C(=C/c2cccc(F)c2)CSc2sccc21	10	118	99	-0.7	4	i	0.97
COC(=O)c1c(C)[nH]c(C(=O)/C=C/c2ccc(C)cc2)c1C	.	.	97	.	.	i	0.95
Cc1cc(/C=C(/C#N)c2nc3ccccc3[nH]2)c(C)n1-c1ccccc1C(=O)O	.	.	100	.	3	i	1.2
Cc1cc(=S)[nH]c(=S)[nH]1	.	.	101	.	.	i	0.95
Cc1ccc(NC2=Nc3ccccc3N3C2=Nc2c(c(C)nn2-c2ccccc2)C3c2ccc(O)c(O)c2)cc1 (centres undefined)	-45	199	99	3.8	-1	.	.
O=C(C1=C[C@H](C2CCCCC2)C[C@H](OCCCCO)O1)N1CCN(Cc2ccccc2)CC1	.	.	99	.	1	i	0.91
Cc1ccc(CNC(=O)C(C)OC(=O)c2cccs2)cc1 (centres undefined)	-15	68	104	-1.6	6	i	0.87
Cc1ccc(C(=O)N(c2ccccn2)C(C)c2ccco2)cc1C (centres undefined)	15	91	92	-1.4	-4	i	1.1
CCOC(=O)C1C(=O)OC(C)(C)C1C(C)C(=O)c1ccc(C)cc1 (centres undefined)	16	79	104	-5.3	-7	i	0.96
O=C1CN(C(=O)CN2CCOCC2)C(c2ccccc2)c2cc(Br)ccc2N1 (centres undefined)	.	.	104	-4.2	7	i	0.99
COc1ccc(N(C(=O)C2CCCCC2)S(=O)(=O)c2cccc3cccnc23)cc1	.	.	104	.	1	i	1
Cc1ccc(S(=O)(=O)N2CCN(C(=O)c3cc4c(C)nn(-c5ccccc5C)c4s3)CC2)cc1	13	69	105	-0.3	6	i	0.82
N#Cc1ccc(-c2ccc(OCC(O)CN3CCOCC3)cc2)cc1 (centres undefined)	-75	55	101	.	1	i	0.98
CCn1c(=O)cc(SCC(=O)NCc2ccc3c(c2)OCO3)c2ccccc21	-158	67	101	-0.6	1	i	1.1
COC(=O)[C@H](Cc1ccccc1)NC(=O)N1CCN(c2ccccc2)CC1	.	.	93	.	.	i	0.86
Cc1ccsc1/C=C(\C#N)C(=O)NCc1cccnc1	-3	77	110	-0.1	3	i	0.98
CCCC(=O)N(CCN(Cc1ccccc1)C(=O)CCC)Cc1ccccc1	-42	138	100	-1.2	-17	i	0.92
CCOC(=O)CCC(=O)N1CCOCCOCCOCC1	-8	85	100	-0.6	-6	i	0.89
Cc1cnc([N+](=O)[O-])n1CCOC(=O)NC(=O)c1ccccc1	-18	119	111	.	4	i	0.9
O=C(NCc1ccco1)c1nc2c(nnn2Cc2ccccc2Cl)c(=O)[nH]1	-243	58	78	-0.1	-8	i	1
Cc1ccc(-n2nnnc2SCC(=O)c2cc(C)n(CC3CCCO3)c2C)cc1 (centres undefined)	.	.	56	.	.	i	0.71
COC(=O)c1ccccc1NC(=O)C(C)c1ccc([N+](=O)[O-])cc1 (centres undefined)	43	109	106	.	-1	i	1
COc1ccc2nc(NC(=O)CSc3nnc(C)n3N)sc2c1	.	.	106	.	.	i	0.98
O=C(N/N=C/c1ccncc1)NC1CCCCC1	.	.	96	.	-3	i	0.98
Cc1ccc(C)c(Cc2c(C)nc3c(C(=O)N4CCOCC4)cnn3c2C)c1	.	.	97	-0.1	-5	i	1.1
O=C(Nc1nc(-c2ccccn2)cs1)c1cc(Cl)ccc1[N+](=O)[O-]	.	.	93	.	3	i	0.86
CCOC(=O)c1c(C)nc2sc(C(=O)Nc3ccc(OC)cc3)c(N)c2c1-c1ccc(OC)cc1	-9	74	102	-3.1	7	i	0.79
CCS(=O)(=O)N1CCN(c2cnn(-c3ccccc3)c(=O)c2Cl)CC1	.	.	98	.	1	i	0.9
CCCCCCCCCCCCCCCCn1cc[n+](C)c1	-124	55	92&105	.	-3	i	0.58&0.64
Cc1ccc(NC(=O)Nc2ccccc2CC[N+](=O)[O-])cc1	18	97	270	.	-4	i	1.1
O=C(C1=C[C@H](C2CC2)C[C@H](OCc2ccc(CO)cc2)O1)N1CCN(Cc2ccc3c(c2)OCO3)CC1	.	.	94	.	3	i	1.1
Cc1nn(-c2ccccc2)c2c1C(c1ccc([N+](=O)[O-])cc1)C(C#N)=C(N)O2 (centres undefined)	.	.	99	.	.	i	0.86
COc1ccc(NC(=O)CN(C)C(=O)c2ccc(C)s2)cc1	-11	118	101	-0.8	-9	i	0.93
CC(C)(C)c1cc(-c2ccccc2)n[nH]1	.	.	98	.	.	i	0.95
COc1ccc(S(=O)(=O)N(C)CC(=O)Nc2cccc(C(C)=O)c2)cc1Cl	.	.	101	-2.3	-2	i	0.92
Cc1ccc2nc(SCC(=O)NCc3ccco3)[nH]c2c1	4	115	104	-0.9	8	.	.
COc1ccc(/C=C/C(=O)N(C)c2ccccc2C(=O)O)cc1	20	116	104	.	-2	i	1
CS(=O)(=O)N(CC(=O)NCc1ccc(Cl)cc1)C1CCCCC1	-120	100	108	-0.4	7	i	1
CCCS(=O)(=O)Nc1cccc(-c2nc3cccnc3s2)c1	.	.	105	.	.	i	0.97
COc1ccc([N+](=O)[O-])cc1NCc1ccccc1C	-9	66	84	-1.3	-12	i	1
COC(=O)c1nn(-c2ccc(Oc3ccccc3)cc2)c(=O)cc1O	.	.	102	.	-6	i	1
C=C(C)CSc1nnc(CCNC(=O)OC(C)(C)C)o1	26	99	104	-2.1	-10	i	1
COc1ccc(C(C)=O)cc1COC(=O)c1cnc(C)cn1	18	53	103	-0.7	-5	i	1
Cc1cc(C)n(C(CC(=O)O)C(=O)O)n1 (centres undefined)	9	117	101	-2.6	-11	i	0.84
COCCN1C=C2C(=O)C(C)(OC(=O)C3CCCC3)C(=O)C=C2C=C1c1ccsc1 (centres undefined)	.	.	103	.	.	i	0.99
CCCCOc1ccc(C2C(C(=O)c3ccc(C)o3)=C(O)C(=O)N2CC2CCCO2)cc1 (centres undefined)	-8	79	111	-1.0	-11	i	1.1
Nn1c(=O)[nH]c2ccccc2c1=O	-48	101	118	.	-1	i	1.1
O=C(Nc1cc2c(cc1Br)OCCCO2)c1ccccc1	0	88	96	-2.0	-9	i	0.95
Cc1ccccc1Nc1scc(-c2ccc(Cl)cc2)[n+]1-c1ccccc1C	-14	111	106	.	-3	i	0.94
Cc1ccc(C)c(OCCSc2nnc(-c3cccnc3)n2N)c1	.	.	93	0.5	-4	i	1.1
CC(C)(C)c1ccc(C(=O)C2CCCN(C(=O)C3CCOCC3)C2)cc1 (centres undefined)	-87	122	105	.	1	i	0.8
Next section:
SMILES	Insulin prom inh	Insulin prom inh cell count	RGS16-Gao	GALR2 agonist	PKD1 kinase inh	HSV augment	HSV augment primary fold
COc1cc(Nc2ccc(C(=O)O)cc2[N+](=O)[O-])cc(OC)c1	7	99	102	-0.1	14	i	1
CC1Cc2ccccc2N1C(=O)c1cc2c(=O)n3ccccc3nc2n1C (centres undefined)	-29	143	102	0.0	8	i	0.63
CCCCN(CCCC)NC(=O)c1ccccc1	7	96	102	.	-19	i	0.92
O=[N+]([O-])c1ccccc1/C=N\N1CCN(c2ccccc2)CC1	.	.	105	.	1	i	0.95
C=CCn1c(C)cc(C2=NNC(=NCc3ccccc3)SC2)c1C	25	95	96	.	-6	i	0.96
O=C(Nn1c(C2CCCCC2)nc2ccccc2c1=O)c1cc(Cl)ccc1[N+](=O)[O-]	-23	86	96	-1.6	-6	i	1.1
CCOc1ccccc1NC(=O)Cn1c(=O)oc2ccccc21	.	.	111	.	-3	i	1.1
Cc1cc(C(=O)N/N=C/c2cc(N=Nc3ccccc3)ccc2O)n[nH]1	.	.	98	0.4	2	i	0.89
Cc1ccccc1Cn1nnc(C(=O)Nc2cccc(C)c2C)c1N	.	.	103	1.6	-2	.	.
O=C(CSc1nc2c(c(=O)n1-c1ccc(Br)cc1)SCC2)NCc1ccco1	0	121	95	-0.6	6	i	0.81

Profiles, looked up by structure.
Shown for Cc1ccccc1Cn1nnc(C(=O)Nc2cccc(C)c2C)c1N → Insulin prom inh: .; Insulin prom inh cell count: .; RGS16-Gao: 103; GALR2 agonist: 1.6; PKD1 kinase inh: -2; HSV augment: .; HSV augment primary fold: .
Shown for Cc1cc(C(=O)N/N=C/c2cc(N=Nc3ccccc3)ccc2O)n[nH]1 → Insulin prom inh: .; Insulin prom inh cell count: .; RGS16-Gao: 98; GALR2 agonist: 0.4; PKD1 kinase inh: 2; HSV augment: i; HSV augment primary fold: 0.89

2 entries picked at random from those above:
SMILES	Insulin prom inh	Insulin prom inh cell count	RGS16-Gao	GALR2 agonist	PKD1 kinase inh	HSV augment	HSV augment primary fold
O=[N+]([O-])c1ccccc1/C=N\N1CCN(c2ccccc2)CC1	.	.	105	.	1	i	0.95
Cc1cc(C(=O)N/N=C/c2cc(N=Nc3ccccc3)ccc2O)n[nH]1	.	.	98	0.4	2	i	0.89
